Compound activity (PubChem)
StopGo reporter: High Throughput Screening for Foot and Mouth Disease Virus Antivirals; human cells with a luciferase reporter of 2A StopGo recoding; control for the full effect not named in the record; Potency, µM (titrated, usually from 57.9 µM), inactives show at the highest dose signal change, negative = less light; 410,000 tested, 1.2% active; active = well fitted falling curve with a large enough effect; inconclusive = small, poorly fitted or top-dose-only effect; inactive = no such curve, though single readings can be large or run the other way; tested in HEK293T cells; also: nearly all actives have a fitted effect of over 45% in size; luciferase light after 4 h
RE007 growth inh: qHTS Assay for Inhibitors of the HIV-1 protein Vpr. S. pombe RE007 Vpr strain, BacTiter-Glo ATP luminescence, 24 h; control for the full effect not named in the record. Potency, µM (doses to about 92.2 µM), for the others: at the top dose activity change, negative = less growth. 360,000 tested, 0.21% active. AID 651644, 2012; active = well fitted falling curve with a large enough effect; inconclusive = small, poorly fitted or top-dose-only effect; inactive = no such curve, though single readings can be large or run the other way;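 also: nearly all actives have a fitted effect of over 50% in size; the assay follows cell death caused by Vpr and the record does not say whether a fall means rescue or toxicity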
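Fission yeast RE007 carrying one integrated HIV-1 vpr copy, seeded at OD 0.01 in PMG+AL medium with 23 nL pinned compound. Grown 24 h at 30 degrees; viability read by BacTiter-Glo luminescence after 5 min.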
Numbers without * were called inactive; ? = inconclusive; [ ] = dose if it differs, or a comment. % is scaled to controls: 0 for no effect and ±100 for the full control effect; potency is read from the fitted curve at half-maximal effect. Only part of the results is shown; the hit share may differ from the screen's.

[1] Cc1ccccc1N=Cc1ccc[nH]1
[2] O=C(c1ccc(C(F)(F)F)cc1)N1CCC(=O)N(C(CO)Cc2ccccc2)CC1 (stereo not drawn)
[3] CCOC(=O)[C@H](CCc1ccccc1)N[C@@H](C)C(=O)N1[C@H](C(=O)O)C[C@@H]2CCC[C@@H]21
[4] CS(=O)(=O)N1CCCCC1c1cc(C(=O)NCc2ccc(F)cc2)no1 (stereo not drawn)
[5] CCOc1ccc(NC(=O)CN2CCN(c3ccc(F)cc3)CC2)cc1S(=O)(=O)N1CCCC1
[6] COc1ccc(Cn2ccnc2SCC(=O)Nc2ccc(F)cc2F)cc1
Screen / compound no.	1	2	3	4	5	6
StopGo reporter	2%	-12%	-13%	-22%	0%	-31%
RE007 growth inh	11%	-3%	6%[18.4 µM]	-13%	2%	-8%

[7] CCCCN(C(=O)c1cccc(S(=O)(=O)N(CC)c2ccccc2)c1)c1c(N)n(CC(C)C)c(=O)[nH]c1=O
[8] Cc1ccc(CN(C)C[C@H]2OCc3cnnn3CCCC(=O)N([C@@H](C)CO)C[C@@H]2C)cc1
[9] COc1cc(CN2C[C@@H](CO)O[C@@H](n3cnc4c(NCc5ccncc5)ncnc43)C2)cc(OC)c1OC
[10] CO[C@@H]1CN(C)C(=O)c2ccc(NS(=O)(=O)c3c(C)noc3C)cc2OC[C@@H](C)NC[C@@H]1C
[11] Cc1cn([C@H]2C[C@H](O)[C@@H](CNCC3=Cc4cc(O)ccc4OC3)O2)c(=O)[nH]c1=O
[12] CC1(C(=O)NS(=O)(=O)c2cccc(C#N)c2)CCN1C(=O)CC1CCCC1 (stereo not drawn)
Screen / compound no.	7	8	9	10	11	12
StopGo reporter	-3%	-4%	-20%	-12%	-15%	-18%
RE007 growth inh	-4%	-5%	-13%	10%	-23%	5%

[13] O=C(CC[C@H]1O[C@@H](n2ccc(=O)[nH]c2=O)[C@H](O)[C@@H]1O)N[C@@H](Cc1ccccc1)C(=O)NCC1CCCO1 (stereo partly drawn)
[14] CSc1ccccc1-c1cnc2cccnn12
[15] c1ccc(COc2ncnc3c2ncn3CCCNC2CCN(Cc3ccccc3)CC2)cc1
[16] Cc1ccc(N(CC(=O)NC(C)(C)C)C(=O)CCC(=O)Nc2ccccn2)c(C)c1
[17] COC(=O)C[C@H]1c2cc(F)ccc2S(=O)(=O)N1c1ccc(N(C)C)cc1
[18] Cc1csc(NC(=O)C2(C)CCN2C(=O)C(C)C)c1C#N (stereo not drawn)
Screen / compound no.	13	14	15	16	17	18
StopGo reporter	-16%	-16%	?	-21%	68%[activator]	-11%
RE007 growth inh	10%	7%	-6%	-13%	5%	2%

[19] CNC(=O)C[C@@H]1C(=O)N(CCc2ccccc2)CC1(C)C
[20] O=C(N[C@@H](Cc1ccc(O)cc1)C(=O)O)c1ccncc1
[21] COc1ccc(CNCCCn2cnc(C(=O)Nc3ccc(C)c(C)c3)n2)cc1
[22] CCc1nc2ccc(C(=O)N3CCN(C(=O)c4ccco4)CC3)cn2c1N(C)C(=O)c1cccc(OC)c1
[23] Cc1csc(-c2ccc3cc(Cl)cc(Cl)c3n2)n1
[24] CN(CCc1ccccc1)C(=O)c1ccc(NC(=O)Cc2ccc(NC(=O)C3CCN(C(=O)CCc4ccccc4)CC3)cc2)cc1
Screen / compound no.	19	20	21	22	23	24
StopGo reporter	-6%	1%	-9%	-9%	49%[activator]	?
RE007 growth inh	3%	1%	1%	8%[18.4 µM]	0%	-16%

[25] CC(=O)c1cccc(NC(=O)C2Cc3c(-c4ccc5c(c4)OCO5)ccnc3O2)c1 (stereo not drawn)
[26] OCCNc1nnc(-c2ccccc2)c(-c2ccccc2)n1
[27] O=C(C(O)c1ccc(Br)cc1)N1CCC(Nc2ccc3[nH]ncc3c2)CC1 (stereo not drawn)
[28] CC1(C(=O)Nc2ccc3c(c2)OCO3)CCN1C(=O)CCC1CCCC1 (stereo not drawn)
[29] CCCCCc1c(CC)ncn1CCc1ccccc1OC
[30] CC1(C)C2CCC(CN=C(N)CSS(=O)(=O)O)C1C2 (stereo not drawn)
Screen / compound no.	25	26	27	28	29	30
StopGo reporter	?	-29%	11%	-2%	40µM*	?
RE007 growth inh	-19%	-9%	1%[18.4 µM]	0%[18.4 µM]	?	-4%

[31] CC1[C@H]2Cc3ccc(O)cc3[C@]1(C)CCN2C (stereo partly drawn)
[32] O=C1NC[C@@H](CCCCN2C[C@H](Cc3ccc(O)cc3)N(CCc3ccccc3)C(=O)C2=O)N(CC2CCCCC2)C1=O
[33] CC1=C(C(=O)N(C)C)CC(CC(=O)NCCCCc2ccccc2)C(=O)N1Cc1ccccc1 (stereo not drawn)
[34] O=C1NC[C@H](CCCCN2C[C@H](Cc3ccccc3)N(CCC3CCCCC3)C(=O)C2=O)N(CCc2ccc(O)cc2)C1=O
[35] O=C1[C@H]2[C@H](C=CC[C@H]2C(=O)N2CCOCC2)CCN1Cc1ccccc1
[36] CC1CCCN(C(=O)c2ccc3c(=O)n4nc(Nc5ccccc5)sc4nc3c2)C1 (stereo not drawn)
Screen / compound no.	31	32	33	34	35	36
StopGo reporter	-16%	0%	-3%	-16%	-10%	-28%
RE007 growth inh	0%	10%	-16%	1%	1%	-26%

[37] CC(C)C[C@@H](CN)NC(=O)c1nc[nH]c1C(=O)N[C@@H](CC(=O)O)C(=O)CNC[C@H](C)NC(=O)c1nc[nH]c1C(=O)N[C@@H](CC(=O)O)C(=O)O
[38] COCCNC(=O)C1(C)CCN(C(=O)c2ccc3c(c2)C(C)(C)CCC3(C)C)C1 (stereo not drawn)
[39] CCCCn1nnnc1C(c1ccccc1)N1CCN(CC)CC1 (stereo not drawn)
[40] Cc1cc(C)nc(N2CCN(c3nc(-c4ccccc4)nc4c3oc3ccccc34)CC2)n1
[41] CCCC(=O)N1CCC1(C)C(=O)Nc1ccccn1 (stereo not drawn)
[42] CCOC(=O)[C@]12CCCC=C1N(Cc1ccc(Cl)cc1Cl)C(=O)[C@H](CC(=O)NCc1ccc(OC)c(OC)c1)C2
Screen / compound no.	37	38	39	40	41	42
StopGo reporter	-19%	4%	-16%	?	-23%	?
RE007 growth inh	0%	1%[18.4 µM]	-8%	-8%	-8%[18.4 µM]	14%

[43] Cc1ccccc1Cn1c(C)c(C(=O)NCc2cccc(C(F)(F)F)c2)sc1=O
[44] COc1ccc(C(=O)N2CCCC(c3cc(C(=O)Nc4ccccc4)no3)C2)cc1 (stereo not drawn)
[45] c1ccc(CCNc2ccc3ncc(-c4cccc5ccccc45)n3n2)nc1
[46] Cc1ccc(S(=O)(=O)NCC(=O)NCC(=O)N(C)Cc2ccc(Br)s2)cc1C
[47] CN(CCc1ccccc1)C(=O)c1ccc(NC(=O)Cc2ccc(NC(=O)C3CCCN(C(=O)c4ccccc4)C3)cc2)cc1 (stereo not drawn)
[48] O=S(=O)(NCc1nnnn1-c1ccc(F)cc1)c1ccc(F)cc1
Screen / compound no.	43	44	45	46	47	48
StopGo reporter	-11%	18%	-27%	-18%	?	31%[activator]
RE007 growth inh	-3%[18.4 µM]	3%	-23%[18.4 µM]	7%	4%	16%

[49] COc1ccc(Cc2c(C(C)(C)C)nc3ccc(C)cn23)c(C)c1
[50] O=C(Nc1ccccc1)[C@@H]1CC=C[C@@H]2CCN(Cc3ccc(Cl)c(Cl)c3)C(=O)[C@@H]21
[51] CCNC(=O)C1(C)CCN1CCC(=O)c1ccc(Br)cc1 (stereo not drawn)
[52] Cc1c(C(=O)NCc2cccc(C(F)(F)F)c2)sc(=O)n1Cc1ccccc1F
[53] CC(=O)Nc1cncc(-c2ccc(CN(C)C)cc2)n1
[54] COc1ccc(S(=O)(=O)NC(=O)C2(C)CCN2C(=O)Cc2ccccc2Cl)cc1 (stereo not drawn)
Screen / compound no.	49	50	51	52	53	54
StopGo reporter	0%	-20%	-9%	-17%	6%	-1%
RE007 growth inh	?	2%	-18%	-5%[18.4 µM]	-5%[18.4 µM]	51%

[55] O=C(NC(c1ccc(-c2ccccc2)cc1)c1cnccn1)C1CCN(Cc2cccc(C(F)(F)F)c2)CC1 (stereo not drawn)
[56] S=C(NNC(=S)Nc1ccc(Cl)cc1)NNc1ccccc1
[57] COCCNC(=O)C1(C)CCCN(C(=O)c2ccccc2)C1 (stereo not drawn)
[58] COc1ccc(C(=O)Nc2cc(OC)c(NC(=O)Nc3ccccc3)cc2OC)cc1
[59] COc1ccc(CN2C(=O)CN(S(C)(=O)=O)CC2(C)C(=O)Nc2c(C)cccc2C)cc1 (stereo not drawn)
[60] FC(F)(F)c1cc(Cl)c2nc(-c3ccccc3)c(Cc3ccccc3)n2c1
Screen / compound no.	55	56	57	58	59	60
StopGo reporter	?	-4%	-13%	-11%	1%	0%
RE007 growth inh	-27%	-1%	12%	-9%	0%	-15%

Some of these compounds in order of count of non-hydrogen atoms, lowest first.
[53] CC(=O)Nc1cncc(-c2ccc(CN(C)C)cc2)n1
[51] CCNC(=O)C1(C)CCN1CCC(=O)c1ccc(Br)cc1 (stereo not drawn)
[57] COCCNC(=O)C1(C)CCCN(C(=O)c2ccccc2)C1 (stereo not drawn)
[49] COc1ccc(Cc2c(C(C)(C)C)nc3ccc(C)cn23)c(C)c1
[60] FC(F)(F)c1cc(Cl)c2nc(-c3ccccc3)c(Cc3ccccc3)n2c1
[46] Cc1ccc(S(=O)(=O)NCC(=O)NCC(=O)N(C)Cc2ccc(Br)s2)cc1C
[52] Cc1c(C(=O)NCc2cccc(C(F)(F)F)c2)sc(=O)n1Cc1ccccc1F
[58] COc1ccc(C(=O)Nc2cc(OC)c(NC(=O)Nc3ccccc3)cc2OC)cc1
Screen / compound no.	53	51	57	49	60	46	52	58
StopGo reporter	6%	-9%	-13%	0%	0%	-18%	-17%	-11%
RE007 growth inh	-5%[18.4 µM]	-18%	12%	?	-15%	7%	-5%[18.4 µM]	-9%

[59] COc1ccc(CN2C(=O)CN(S(C)(=O)=O)CC2(C)C(=O)Nc2c(C)cccc2C)cc1 (stereo not drawn)
[55] O=C(NC(c1ccc(-c2ccccc2)cc1)c1cnccn1)C1CCN(Cc2cccc(C(F)(F)F)c2)CC1 (stereo not drawn)
[47] CN(CCc1ccccc1)C(=O)c1ccc(NC(=O)Cc2ccc(NC(=O)C3CCCN(C(=O)c4ccccc4)C3)cc2)cc1 (stereo not drawn)
Screen / compound no.	59	55	47
StopGo reporter	1%	?	?
RE007 growth inh	0%	-27%	4%

More compounds.
[61] COC(=O)C1=C(C(=O)OC)[C@@H]2N(Cc3ccccc3)c3ccccc3[C@@]23C[C@@H](C(=O)OC)N(C(=O)NC(C)(C)C)C3=N1
[62] Cc1ccc(Cn2cc(CN3CC(N4CCN(CCN(C)C)CC4)CS3(=O)=O)nn2)cc1 (stereo not drawn)
[63] CC1(C(=O)Nc2ccc(F)c(Cl)c2)Cc2c(-c3ccc(C(N)=O)cc3)ccnc2O1 (stereo not drawn)
[64] O=C1NC[C@@H](CCCCN2C[C@H](Cc3ccc(O)cc3)N(CCC3CCCCC3)C(=O)C2=O)N(CCc2ccc(O)cc2)C1=O
[65] CC(C)C(N)c1csc(Nc2ccc(C(=O)NCCCO)cn2)n1 (stereo not drawn)
[66] CC(C)(O)C#Cc1ccc(CNC[C@H]2O[C@@H](n3cnc4c(=O)[nH]c(N)nc43)[C@H](O)[C@@H]2O)s1
Screen / compound no.	61	62	63	64	65	66
StopGo reporter	-3%	-23%	-28%	-13%	-14%	-6%
RE007 growth inh	7%	-5%	-3%[18.4 µM]	-3%	9%	7%

[67] CC1(C(=O)Nc2ccc3c(c2)OCO3)CCN1Cc1cccc2c1OCO2 (stereo not drawn)
[68] COc1ccccc1/C=N/Nc1nc(C)c(C(C)=O)s1
[69] COc1cccc(CN2CCN(c3ccc(F)cc3)CC2)c1OC
[70] COc1ccc(N2C(c3cc(OC)cc(OC)c3)=Cc3ccccc3C2CC(C)=O)cc1 (stereo not drawn)
[71] CC1(Oc2ccc(-n3ccnc3)cc2)CCN(Cc2cccn2-c2nccs2)C1 (stereo not drawn)
[72] NC(Cc1ccccc1)c1csc(Nc2nncc3ccccc23)n1 (stereo not drawn)
[73] Fc1ccc(-c2nc3c(Cl)cc(C(F)(F)F)cn3c2Cc2cccc(F)c2)cc1
[74] COc1ccccc1Cc1c(-c2ccc(F)cc2)nc2cc(C)c(Br)c(C)n12
Screen / compound no.	67	68	69	70	71	72	73	74
StopGo reporter	-6%	32%[activator]	-27%	-9%	-27%	-6%	0%	12%
RE007 growth inh	-8%[18.4 µM]	-1%	-17%	-10%	-27%	-6%[18.4 µM]	28%	-11%

A run of entries from further up, as a working copy:
[73] Fc1ccc(-c2nc3c(Cl)cc(C(F)(F)F)cn3c2Cc2cccc(F)c2)cc1
[74] COc1ccccc1Cc1c(-c2ccc(F)cc2)nc2cc(C)c(Br)c(C)n12
Screen / compound no.	73	74
StopGo reporter	0%	12%
RE007 growth inh	28%	-11%
